Bioassay records as filed in PubChem.
Resorufin autofl: compounds fluorescent in resorufin spectral region | hit rate 0.04% among 59,000 | Compound fluorescence, resorufin region 547/598 nm, buffer; hits give high values | AID 588 | max dye-equivalent concentration, M; active = above 10 nM dye equivalent; inconclusive = 1 to 10 nM; inactive = 1 nM or less; a few of its hits are not listed in these tables; note: highest value over a series up to 38 µM
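Read-out: intrinsic compound fluorescence at ex 547/em 598 nm after 15 min at RT in pH 8.0 Tris (100 mM). Values expressed as resorufin-equivalent concentration from per-plate standard series.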
TSHR ag: agonists of human thyroid stimulating hormone receptor | P16473 | HEK293-CNG-TSHR cells (CNG channel as cAMP sensor), membrane potential dye, cAMP | Potency, µM (doses to about 57.1 µM), inactives show top-dose activation, usual class: activators | hit rate 0.48% among 73,000; active = well fitted activation curve of enough size with the parental cells flat; inconclusive = any curve in the parental cells; inactive = parental cells flat and receptor cells flat or falling; note: potency is the fitted concentration of half-maximal effect; % of control where 0% means no effect; weak receptor curves with flat parental cells got no call and are not listed
Target sequence (P16473 whole entry, looked up): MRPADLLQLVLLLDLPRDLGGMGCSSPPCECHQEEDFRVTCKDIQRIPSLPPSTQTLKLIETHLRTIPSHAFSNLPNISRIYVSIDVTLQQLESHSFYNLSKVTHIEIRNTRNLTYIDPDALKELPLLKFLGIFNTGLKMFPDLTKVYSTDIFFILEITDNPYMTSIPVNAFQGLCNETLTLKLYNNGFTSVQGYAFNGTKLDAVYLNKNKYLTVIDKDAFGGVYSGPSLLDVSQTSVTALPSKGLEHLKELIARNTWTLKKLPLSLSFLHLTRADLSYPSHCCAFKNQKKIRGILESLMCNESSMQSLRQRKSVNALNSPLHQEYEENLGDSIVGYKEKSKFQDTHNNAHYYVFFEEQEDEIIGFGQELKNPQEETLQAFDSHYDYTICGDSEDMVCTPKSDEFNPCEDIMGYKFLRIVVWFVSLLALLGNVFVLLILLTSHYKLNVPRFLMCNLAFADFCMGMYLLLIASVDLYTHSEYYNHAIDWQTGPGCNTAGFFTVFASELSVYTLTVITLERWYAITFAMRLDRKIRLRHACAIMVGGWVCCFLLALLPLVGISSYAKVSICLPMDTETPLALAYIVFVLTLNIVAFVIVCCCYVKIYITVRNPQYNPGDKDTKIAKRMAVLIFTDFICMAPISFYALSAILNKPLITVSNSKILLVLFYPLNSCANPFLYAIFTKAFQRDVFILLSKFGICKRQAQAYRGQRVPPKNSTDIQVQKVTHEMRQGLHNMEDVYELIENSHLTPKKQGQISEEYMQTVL
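HEK 293 cells stably expressing TSHR and a cAMP-gated CNG channel; parental CNG-only cells as counterscreen. Cells preloaded 60 min with membrane potential dye plus 100 uM RO 20-1724, then compound 30 min; fluorescence read at 590 nm.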
A647 autofl: A647 region autofluorescence | 59,000 tested, under 10 active | Compound fluorescence, A647 channel (570/671 nm), Tris buffer | max dye-equivalent concentration, M; active means above 1 µM dye equivalent; inconclusive means 0.1 to 1 µM; inactive means 0.1 µM or less;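 note: values scaled relative to a standard on each plate; highest value over a series up to 38 µM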
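Compounds pinned into 100 mM Tris pH 8.0, 15 min at room temperature, then read with 570 nm excitation/671 nm emission filters. Fluorescence normalized to an on-plate six-point Alexa 647 standard curve, giving dye-equivalent concentration per compound concentration.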
AID923: qHTS Assay for Allosteric/Competitive Inhibitors of Caspase-1: Spectroscopic Profiling in AFC Spectral Region | compound fluorescence, AFC spectral region (405/520 nm); almost no hit is shown here | Potency, µM (doses to about 57.5 µM), inactives show at the highest dose fluorescence increase, hits mostly activators | hit rate 1.1% among 75,000 | AID 923, 2007; active = well fitted activation curve with a large enough effect; inconclusive = small, poorly fitted or top-dose-only effect;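 note: potency is the fitted concentration of half-maximal effect; 0% is about no effect; scaled to a free AFC standard on each plate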
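Baseline compound fluorescence (AFC region, 405 nm ex/520 nm em) taken from the intercept of kinetic reads with 50 nM caspase-1 and 5 uM Ac-WEHD-AFC; normalized to an on-plate AFC standard curve; compounds titrated up to 57 uM.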
A488 autofl: compound autofluorescence in A488 spectral region; max dye equivalency, M; hit rate 0.1% among 59,000; compound autofluorescence, A488 spectral region, dye equivalency; hits give high values; AID 591; active = above 10 nM dye equivalent; inconclusive = 1 to 10 nM; inactive = 1 nM or less; about half of its hits are not listed in these tables;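 note: highest value over a series up to 38 µM; compound alone in buffer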
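Read-out: relative fluorescence at 480/540 nm, expressed as Alexa 488 dye-equivalent concentration from a six-point A488 standard included per plate. Conditions: 100 mM Tris, pH 8.0; 15 min incubation, room temperature.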
* hit, by the source's call; i = inactive; ? = inconclusive; / = no result given; & = joins results of further samples; [ ] = remark or other dose.

SMILES	Resorufin autofl	TSHR ag	A647 autofl	AID923	A488 autofl
Cn1c(=O)c2c(nc(CN3CCC(C(N)=O)CC3)n2CCCc2ccccc2)n(C)c1=O	i	6%	3.8e-08	-2.1%	i
O=C(NCc1ccccc1)C1CCN(S(=O)(=O)N2CCCCCC2)CC1	i	3%	4.4e-09	-1.5%	i
O=c1cnnc(NCc2ccccc2)[nH]1	i	-11%	2.4e-08	-1.7%	i
O/N=C1/CCCSc2ccccc21	/	0%[11.4 µM]	/	1.1%	/
Cc1onc(-c2ccccc2)c1C(=O)N1CCOCC1	i	?	2.6e-08	-0.2%	i
COc1ccc(N(C(=O)c2cccc(OC)c2OC)C2C=CS(=O)(=O)C2)c(OC)c1 (centres undefined)	i	-4%[11.4 µM]	1e-09	0.8%	i
COc1cc(N)c(Cl)cc1C(=O)CCC1CCN(CCNS(C)(=O)=O)CC1	/	-7%	/	1.8%	/
CCNC(=O)c1c(C)[nH]c(C(=O)OCC)c1C	i	?	2.3e-09	-0.7%	i
CCNc1ncc2nc(-c3cn(C)c4ccccc34)c(=O)n(CCC#N)c2n1	i	5%	1e-09	20%	i
CC1(C)Cc2c(C#N)c(SCC(=O)c3ccccc3)nc(N3CCOCC3)c2CS1	i	/	1e-09	/	i
COCCN(C(=O)CCCC(=O)Nc1ccccn1)C(C(=O)NC1CCCC1)c1ccc(C)cc1 (centres undefined)	i	?	1e-09	1.7%	i
CS(=O)(=O)N(CC(=O)Nc1ccc2c(c1)OCO2)Cc1ccc(Cl)cc1	i	5%	7.3e-09	3.8%	i
Cc1cc(SCC(=O)c2ccccc2)nc(C)n1	i	14%	9.7e-09	-0.2%	i
N#Cc1ccccc1-c1nc(NCCN2CCOCC2)c2ccccc2n1	i	1%	1e-09	2.2%	i
COc1ccc(OC)c(N(CC(=O)Nc2ccc(NC(C)=O)cc2)S(C)(=O)=O)c1	i	-2%	1.4e-08	-0.4%	i
O=c1[nH]c(CN2CCN(C/C=C/c3ccccc3)CC2)nc2ccccc12	i	8%	2e-08	-1.7%	i
Cc1ccc2nc(Nc3ccc4[nH]c(=O)[nH]c4c3)c(-n3nc(C)cc3C)nc2c1	i	-32%[inhibitor]	1e-09	19%	i
COC(=O)CC1=NC(=O)CS1	i	/	8.6e-08	/	i
Cc1cc(C(=O)Nc2ccon2)cs1	i	-1%	3.1e-08	-0.1%	i
CCOc1cc(OCC)cc(C(=O)Nc2cccnc2)c1	i	?	1.4e-09	-0.5%	i
Cc1ccc(CNC(=O)CCCn2c(=O)[nH]c3ccccc3c2=O)cc1	i	7%	2.4e-09	-0.9%	i
CCOc1ccccc1NC(=O)CSc1nnc(-c2cnccn2)n1C	i	2%[11.4 µM]	2.7e-09	1.2%	i
Cc1ccccc1OCC(=O)NCC1CCCO1 (centres undefined)	i	-1%	1e-09	0.7%	i
COc1ccc(-c2cc(C(=O)N3CCN(C(c4ccccc4)c4ccccc4)CC3)no2)cc1	i	-2%	6.2e-09	1.0%	i
CCOC(=O)CN1CC23C=CC(O2)C(C(=O)O)C3C1=O (centres undefined)	/	0%	/	3.7%	/
Cc1c(O)nc(SC2CC(=O)N(c3ccccc3)C2=O)[nH]c1=O (centres undefined)	i	-3%	5e-09	0.7%	i
Cc1ccc(C)c(NC2=NS(=O)(=O)c3ccccc32)c1	i	2%	2e-08	-0.8%	i
CCOc1ccc2c(c1)N(C(=O)CN1C(=O)CCC1=O)C(C)(C)C=C2C	i	2%	2.2e-09	0.0%	i
CC(=O)Nc1ccc(C(=O)Cn2nnc3ccccc3c2=O)cc1	i	12%	8.1e-09	0.7%	i
CCCCCNC(=O)c1cc(S(=O)(=O)N2CCCCC2)ccc1F	i	?	1e-09	-0.3%	i
Cc1nc2ccc(S(=O)(=O)NCC(=O)N3CCC(N4CCCCC4)CC3)cc2s1	i	5%[11.4 µM]	7e-09	0.7%	i
CC1(C)O[C@@H]2O[C@H]([C@H](O)CO/N=C3/[C@H]4O[C@@H]4[C@@H](O)[C@H]4[C@H]3CCn3c(=O)n(-c5ccccc5)c(=O)n34)[C@@H](O)[C@@H]2O1	/	7%[11.4 µM]	/	-2.6%[11.5 µM]	/
C(=N\n1cnnc1)/C1CCCCC1	i	-1%[11.4 µM]	1.6e-08	0.2%	i
COc1ccc(N2CCN(C(c3cc(OC)ccc3OC)c3nnnn3Cc3ccco3)CC2)cc1 (centres undefined)	i	?	1e-09	-0.1%	i
CCOC(=O)Cn1c(=O)oc2cc(S(=O)(=O)N3CCCC(C(=O)OCC)C3)ccc21 (centres undefined)	/	-1%[11.4 µM]	/	0.5%	/
CCOC(=O)c1c(NC(=O)CSc2nnc(CNc3ccc(F)cc3)o2)sc(C)c1C	i	0%	1e-09	-3.2%	i
Cn1c(=O)[nH]c(=O)c2c1nc(N1CCCCCC1)n2CCCSc1nc2ccccc2o1	i	4%	2.6e-09	-2.6%	i
CCC1(CC)C(=O)N(C)C(=O)NC1=Nc1ccccc1	i	-1%	4e-08	2.0%	i
COCCCN=C(c1ccco1)n1c(=S)nc(-c2ccco2)n(CCCOC)c1=S	i	19%	2.9e-08	8.9%	i
Cc1cc(N2CCC(C)CC2)nc2ccc(N3C(=O)CCC3=O)cc12	i	14%[11.4 µM]	6.2e-09	1.1%	i
COc1ccccc1CNC(=O)C1CCN(Cc2nc(-c3ccc(Cl)cc3)oc2C)CC1	i	8%	1.5e-08	2.0%	i
CCOC(=O)N1CCN(c2c(NCCN(C)Cc3ccccc3)c(=O)c2=O)CC1	/	-1%	/	-1.4%	/
CCOCCCN(Cc1cc2cc(C)cc(C)c2[nH]c1=O)C(=O)N(CC)CC	i	26%	1.2e-08	-2.3%	i
O=C(Cc1c(F)cccc1Cl)c1ccc(O)cc1O	/	-7%	/	1.7%	/
Cn1c(=O)c2c(nc(CN3CCN(c4ccccc4)CC3)n2Cc2c(F)cccc2Cl)n(C)c1=O	i	/	1e-09	0.4%	i
COc1cccc(C(=O)N2CCN(C3CCC(c4ccccc4)CC3)CC2)c1OC (centres undefined)	i	10%	1.4e-08	-0.6%	i
O=C(OCCN1CCCCC1)c1cc2ccccc2o1	i	9%	1.6e-09	2.4%	i
Cc1cc(NS(=O)(=O)c2ccc(Br)s2)no1	i	-4%	9.7e-09	4.2%	i
COc1ccc(Cn2nnnc2C(c2ccccc2Cl)N2CCN(C3CCCC3)CC2)cc1 (centres undefined)	i	?	4.6e-09	2.1%	i
O=C(Nc1ccc(N2CCN(C(=O)c3ccco3)CC2)cc1)c1cccs1	i	-11%	1e-09	1.3%	i

Ordered by length of the SMILES (highest first): some entries from above
SMILES	Resorufin autofl	TSHR ag	A647 autofl	AID923	A488 autofl
Cc1nc2ccc(S(=O)(=O)NCC(=O)N3CCC(N4CCCCC4)CC3)cc2s1	i	5%[11.4 µM]	7e-09	0.7%	i
CCCCCNC(=O)c1cc(S(=O)(=O)N2CCCCC2)ccc1F	i	?	1e-09	-0.3%	i
Cc1ccc(C)c(NC2=NS(=O)(=O)c3ccccc32)c1	i	2%	2e-08	-0.8%	i
Cc1cc(SCC(=O)c2ccccc2)nc(C)n1	i	14%	9.7e-09	-0.2%	i

Other records:
SMILES	Resorufin autofl	TSHR ag	A647 autofl	AID923	A488 autofl
CC(N)=NCCCC[C@H](N)C(=O)O	i	9%	4e-09	1.3%&-1.0%	i
CCCOc1ccc(/C(O)=C2/C(=O)C(=O)N(c3cc(C)on3)C2c2ccc(C(=O)OC)cc2)cc1 (centres undefined)	i	30%	1.2e-09	0.7%	i
CCCCN(CC)S(=O)(=O)N1CCC(C(=O)NCCCN2CCOCC2)CC1	i	4%	4.9e-09	0.8%	i
C[C@@H](C(=O)O)c1cccc(C(=O)c2ccccc2)c1	i	-10%[25.6 µM]	3.7e-08&1e-09	-0.4%[25.7 µM]	i
C[C@@H](C(=O)NCc1ccccc1)[C@@H]1C[C@@]1(C)[C@@H](NC(=O)OCc1ccccc1)c1ccccc1	/	6%	/	-0.8%	/
Cc1cc(C)c2c(c1)cc(C)c1nnc(SCC(=O)Nc3cc(C)on3)n12	i	/	1.3e-09	1.1%	i
Cc1cc(NC(=O)CN2CC3CC(C2)c2cccc(=O)n2C3)nc2c1c(=O)oc1ccccc12 (centres undefined)	/	-3%	/	4.7%	/
CCOC(=O)N1CCC(NC(=O)Cn2cc3c(n2)CCCCC3)CC1	/	2%	/	2.9%	/
COc1ccc(S(=O)(=O)N2CCN(C(=O)c3c(C)nn(-c4ccccc4)c3Cl)CC2)cc1	i	11%	1e-09	-2.2%	i
CC(=O)N1CCN(c2nc(CC(C)C)c3c(c2C#N)CCC3)CC1	i	/	1.5e-09	/	i
COCC(=O)NCCc1ccc(S(N)(=O)=O)cc1	/	-8%[11.4 µM]	/	-0.3%	/
CCOC(=O)N1CCN(C(=O)CSc2nc3ccccc3c(=O)n2-c2ccccc2)CC1	i	14%	4.9e-08	-1.3%	i
COc1cc(C2NC(=O)NC(C)=C2C(=O)OC2CCCCC2)cc(Br)c1O (centres undefined)	/	?	/	-1.9%	/
COc1cc(-c2ccc(N=Nc3ccc4c(S(=O)(=O)O)cc(S(=O)(=O)O)c(N)c4c3O)c(OC)c2)ccc1N=Nc1ccc2c(S(=O)(=O)O)cc(S(=O)(=O)O)c(N)c2c1O	i	-21%	2.3e-09	-1.9%	i
O=C(NCCc1c[nH]c2ccccc12)[C@@H]1C[C@H]1[C@@H](NP(=O)(c1ccccc1)c1ccccc1)c1ccccc1	/	4%	/	1.1%	/
CCOC(=O)CNC(=O)CSc1ncnc2c1cnn2-c1ccc(C)cc1	i	10%	2.3e-08	0.8%	i
FC(F)(F)c1nc2nc(Cl)c(Cl)nc2n1CCCN1CCOCC1	i	0%[11.4 µM]	1e-09	-2.7%[11.5 µM]	i
CCCc1cc(=O)oc2c(CN3CCCC3)c(O)ccc12	i	/	1.8e-09	/	i
Cc1cc(Cl)ccc1OCC(=O)Nc1ccccc1CO	i	16%	3.6e-08	-1.4%	i
N#C/C=C1/NC(=O)c2ccccc2S1	i	6%	3.9e-09	-0.3%	i
COCCNC(=O)c1cc(-c2ccc(OC)c(OC)c2)on1	i	-1%[11.4 µM]	4.6e-09	0.4%	i
Cn1c2ccccc2c2c(C(=O)NCCCN3CCCC3=O)cn(C3CCCCC3)c(=O)c21	i	3%	1e-09	-0.7%	i
O=C(CCn1nc(-c2ccc(Cl)cc2)ccc1=O)N1CCOCC1	i	5%	1e-09	-1.0%	i
C=C1C(=O)O[C@H]2C[C@@]3(C)CCCC(=C)[C@@H]3C[C@H]12	i	2%	5.2e-09	/	i
Cn1c(CCCCCN)nc2ccccc21	i	-7%	4.3e-08	1.1%	i
CCOC(=O)c1ccc(S(=O)(=O)N2CCN(CC3CC=CCC3)CC2)cc1 (centres undefined)	i	?	4.2e-08	1.1%	i
CC(C)(C)n1ncc2c(=O)n(CC(=O)c3ccc(Cl)cc3)cnc21	i	?	2.4e-08	-0.4%	i
O=c1c(-c2cccc(Cl)c2)nc2cncnc2n1C1CC1	i	-6%	1e-09	2.2%	i
CCOC(=O)c1cc(NC(=O)Nc2ccc(OC)c(OC)c2)c(C)nc1C	i	-5%	8.4e-09	1.0%	i
Cc1cccc(OCC(=O)Nc2cc(C)c(C)cc2O)c1	i	-7%	4.5e-09	-1.1%	i
CC(C)(C)n1nc2c(c1NC(=O)COc1ccc(Cl)cc1)CSC2	i	5%[11.4 µM]	8.2e-09	-0.2%	i

A second format for two compounds above.
mol | Resorufin autofl | TSHR ag | A647 autofl | AID923 | A488 autofl
CCOC(=O)c1cc(NC(=O)Nc2ccc(OC)c(OC)c2)c(C)nc1C | i | -5% | 8.4e-09 | 1.0% | i
O=c1c(-c2cccc(Cl)c2)nc2cncnc2n1C1CC1 | i | -6% | 1e-09 | 2.2% | i

An excerpt; rates above refer to the full screens.
